PINK1 expr mod: PINK1 expression modulation. PINK1 immunofluorescence, high-content cytometry, 24 h. Potency, µM (titrated, usually from 76.6 µM), inactives show top-dose activation (PINK1 increase), usual class: activators. 410,000 tested, 0.2% active; active = well fitted activation curve with a large enough effect; inconclusive = small, poorly fitted or top-dose-only effect; inactive = flat fitted curve, though single readings scatter; cell line not stated here;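 also: potency is read from the fitted curve at half-maximal effect; % of control where 0% means no effect; nearly all actives have a fitted effect of over 65% in size; a mitochondrial uncoupler was the plate control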
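Fluorescence from anti-PINK1 antibody, together with nuclear and cell stains, was scanned on a laser-scanning cytometer. Before staining, stable-line cells were incubated 24 hours with compounds at 5 concentrations; primary antibody 12 h at 10 degrees C.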
Six1-Eya2 blk: inhibitors of human Six1/Eya2 interaction | 360,000 tested, 0.56% active | AlphaScreen GST-Six1/His-Eya2 binding, biochemical; stronger effect = lower value; control for the full effect not named in the record | activity change, % (test concentration not listed) | AID 651725; in the data active = activity change below about -65%; inconclusive = about -30% to -65%; inactive = above about -30%; also: % is scaled to controls: 0 for no effect and ±100 for the full control effect; compound concentration not given in the record
Target sequence (O00167 whole entry, looked up): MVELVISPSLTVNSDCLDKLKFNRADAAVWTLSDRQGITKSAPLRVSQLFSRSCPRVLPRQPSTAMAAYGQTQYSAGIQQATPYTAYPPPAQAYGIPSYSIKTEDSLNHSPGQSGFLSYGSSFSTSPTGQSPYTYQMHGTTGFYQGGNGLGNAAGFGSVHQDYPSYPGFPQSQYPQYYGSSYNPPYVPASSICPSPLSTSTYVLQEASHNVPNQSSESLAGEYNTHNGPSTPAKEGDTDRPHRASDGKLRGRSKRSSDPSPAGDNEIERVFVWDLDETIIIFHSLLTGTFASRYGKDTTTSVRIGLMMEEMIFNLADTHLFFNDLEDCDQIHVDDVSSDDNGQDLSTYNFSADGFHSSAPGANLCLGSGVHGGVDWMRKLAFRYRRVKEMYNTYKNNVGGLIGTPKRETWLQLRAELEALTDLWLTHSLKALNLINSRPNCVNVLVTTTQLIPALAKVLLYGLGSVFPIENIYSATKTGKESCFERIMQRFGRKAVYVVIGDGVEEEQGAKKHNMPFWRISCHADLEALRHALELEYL
Target sequence (Q15475 whole entry, looked up): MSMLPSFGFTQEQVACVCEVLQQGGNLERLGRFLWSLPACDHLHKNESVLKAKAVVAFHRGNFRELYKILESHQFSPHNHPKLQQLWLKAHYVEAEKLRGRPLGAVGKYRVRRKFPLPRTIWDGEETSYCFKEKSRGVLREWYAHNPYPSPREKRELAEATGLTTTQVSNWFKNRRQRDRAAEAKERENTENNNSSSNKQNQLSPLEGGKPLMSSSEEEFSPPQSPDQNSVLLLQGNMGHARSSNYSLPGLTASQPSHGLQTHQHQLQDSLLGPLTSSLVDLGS
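AlphaScreen luminescence read after one hour at 37 °C in darkness. Pin-transferred compounds met GST-Six1 and His-Eya2 protein (5X stock 250 nM/500 nM) plus glutathione donor and Ni-chelate acceptor beads (5X, 50 ug/mL).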
TRPML1 agonist: activates the human TRPML1 channel; TRPML1-expressing cells, Ca2+ dye fluorescence, FDSS; host cell line not named in the record; reference of the full effect not given here; activation, % (test concentration not listed); 410,000 tested, 0.12% active; in the data active = activation above about 50%; inconclusive = about 30% to 50%; inactive = below about 30%; also: 0% is about no effect; the text of the record puts the active cut at 80%
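Calcium fluorescence on an FDSS kinetic reader gave the read-out. Tet-induced TRPML1-DL cells were plated overnight, dye-loaded (Ca8 with quencher, 45-90 min, room temperature, dark), then read 110 s after compound addition, and again 110 s after 4uM final 54-4 (EC80).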
CtBP-E1A blk: CtBP/E1A binding inhibition | 340,000 tested, 0.49% active | AlphaScreen GST-E1A/His-CtBP binding, 1536-well; stronger effect = lower value; control for the full effect not named in the record | AID 651724 | activity change, % (concentration not given with the values); in the data active means activity change below about -65%; inconclusive means about -30% to -65%; inactive means above about -30%; also: % is scaled to controls: 0 for no effect and ±100 for the full control effect
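GST-E1A and His-tagged CtBP (125 nM each as 5X stock) were preincubated with pin-transferred compound for 2 h at 37 °C in the dark, then glutathione donor and nickel acceptor beads were added for 1 h before AlphaScreen reading.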
TRPML1 inh: human mucolipin-1 channel inhibition. TRPML1-inducible cells, Ca2+ dye fluorescence, FDSS; stronger effect = lower value; inhibition of EC80 agonist-evoked calcium signal. activity change, negative = inhibition, % (concentration not given with the values). 390,000 tested, 0.02% active; in the data active means activity change below about -50%; inconclusive means about -30% to -50%; inactive means above about -30%;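 also: stimulus is agonist 54-4 at its EC80 concentration; % is scaled to controls: 0 for no effect and ±100 for the full control effect; compound concentration not given in the record; the text of the record puts the active cut at -80%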
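Calcium fluorescence in TRPML1-DL cells induced overnight with Tet: a 110 s read after compound pin addition, then a 110 s antagonist read after challenge with 54-4 at 4 uM final (EC80).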
D2 agonist: human D2 receptor agonism in beta-arrestin assay | 360,000 tested, 0.084% active | activation, % (no concentration beside the values) | DiscoveRx PathHunter D2 beta-arrestin, luminescence, 90 min; 100% = 57 uM dopamine signal; in the data active = activation above about 40%; inconclusive = about 15% to 40%; inactive = below about 15%; also: compound concentration not given in the record; the text of the record calls up to 30% inactive
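Agonist mode: compounds alone added to overnight-plated D2 PathHunter cells for 90 min at 37 C, with 57 uM final dopamine (EC100) defining full response. Beta-arrestin recruitment detected by chemiluminescent reagent, read after 1 h at ambient temperature.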
An asterisk follows results filed as active; ? = inconclusive; . = not tested or not shown; [ ] = dose if it differs, or a comment.

SMILES | PINK1 expr mod | Six1-Eya2 blk | TRPML1 agonist | CtBP-E1A blk | TRPML1 inh | D2 agonist
Cc1ccc(C)c(N2CCN(C(=O)CCc3c(C)nc4c(c3C)c(=O)n(C)c(=O)n4C)CC2)c1 | 0.6% | . | -1.1 | . | -2 | .
Cc1cccc(N2CCN(CC(O)COc3ccc4ccccc4c3)CC2)c1 (stereo unspecified) | 24% | 2 | 3.3 | -5 | -6 | 8.1
C=CCOc1ccc(/C=C/C(=O)OCC(=O)NCC(=O)Nc2c(C)cc(C)cc2C)cc1 | 0.4% | 6 | 1.9 | 0 | 26 | -3.5
CSc1ccc(S(=O)(=O)NC2CC2)cc1 | 1.5% | 2 | . | . | . | 4.5
COc1oc(-c2ccc(Cl)cc2)nc1C(F)(F)F | -1.7% | 2 | 1.2 | 7 | 5 | -4.8
Cc1ccc(Nc2nc(CSc3nnnn3-c3ccccc3)cs2)cc1 | 4.2% | -22 | 0.9 | -19 | -1 | -2.0
O=[N+]([O-])c1ccc(N/N=C\c2ccccc2OCc2ccccc2)cc1 | 9.4% | 7 | 6.0 | 10 | 3 | -1.5
Cc1ccc2nc3c(cc(C(=O)NCC4CCCO4)c(=N)n3C3CCCC3)c(=O)n2c1 (stereo unspecified) | 1.5% | -10 | 0.3 | -28 | -7 | -2.9
O=C1CC(c2ccccc2)Cc2[nH]c(=O)c(C(=O)Nc3cccc(F)c3)cc21 (stereo unspecified) | 5.9% | . | 1.6 | . | 7 | .
Cc1ccc(CN2C(=O)C(CC(C)C)Nc3ncnc(N4CCN(c5ccccn5)CC4)c32)cc1 (stereo unspecified) | 7.8% | 2 | 0.0 | . | -2 | -5.7
CC(C)COP(=O)(c1ccc(N(C)C)cc1)C(Nc1ccccc1)c1ccccc1 (stereo unspecified) | 5.0% | -24 | 2.1 | -15 | 20 | -3.4
O=S1(=O)N[C@H](c2ccccc2)C[C@H](c2ccc(C(F)(F)F)cc2)O1 | 5.7% | 2 | -0.9 | -2 | -7 | 0.3
Cc1cc(Cl)ccc1-c1cc2nc(NCCCN(C)C)n(C)c(=O)c2s1 | -1.2% | 4 | -0.4 | -13 | . | 4.3
O=C(CN1c2ccccc2S(=O)(=O)c2ccccc21)Nc1cccc(C(F)(F)F)c1 | ? | . | 0.6 | . | 1 | .
CCOc1ccc(C2C(C(=O)Nc3ccccc3)=C(C)Nc3nc(-c4ccccc4Cl)nn32)cc1OC (stereo unspecified) | 2.4% | . | -0.6 | . | 2 | .
Cc1ccc(CNS(=O)(=O)NCc2ccccc2F)cc1 | -1.2% | 5 | 0.0 | -1 | -10 | -1.9
Cc1ccc(C)c(-n2c(-c3csc(C)c3)n[nH]c2=S)c1 | 0.8%[38.3 µM] | -1 | 0.0 | -4 | -1 | 2.5
CCOC(=O)c1c(C)c[nH]c1C | 3.2% | 9 | 0.1 | -4 | -16 | -2.6
Cn1c(NC(=O)c2ccccc2Br)cc(=O)n(C)c1=O | 2.4% | 3 | 0.0 | 8 | 31 | -2.1
O=C(O)C1CCN(C(=O)c2cccc3ccccc23)CC1 | 0.4% | -4 | 0.0 | 11 | 5 | -0.9
C=CCOc1ccc(-c2nc3c(c(=O)[nH]c(=O)n3CCC)n2CCCC)cc1 | 5.0% | 7 | 2.1 | 23 | 7 | 0.4
C#CCOCCOCCOCCNc1nc(N2CCN(C(=O)Cn3cc(CCO)nn3)CC2)nc(N2CCN(C(=O)Cn3cc(CCCN=C(N)N)nn3)CC2)n1 | 1.9% | 4 | 0.3 | 3 | -18 | -3.1
CC1=NN(C(=O)COc2ccc(C)c(C)c2)C(O)(c2ccccc2)C1 (stereo unspecified) | -0.4% | -12 | 0.5 | -3 | 17 | -5.3
COc1cccc(-c2cc(C(=O)N3CCN(S(=O)(=O)c4ccc(Br)cc4)CC3)[nH]n2)c1 | 5.4% | 3 | 0.5 | -2 | -7 | 0.8

Shown with two lines to a compound: three of the compounds above.
Sequence of screens – PINK1 expr mod, Six1-Eya2 blk, TRPML1 agonist, CtBP-E1A blk, TRPML1 inh, D2 agonist
Cc1cc(Cl)ccc1-c1cc2nc(NCCCN(C)C)n(C)c(=O)c2s1
    -1.2%, 4, -0.4, -13, ., 4.3
O=C(CN1c2ccccc2S(=O)(=O)c2ccccc21)Nc1cccc(C(F)(F)F)c1
    ?, ., 0.6, ., 1, .
CCOc1ccc(C2C(C(=O)Nc3ccccc3)=C(C)Nc3nc(-c4ccccc4Cl)nn32)cc1OC (stereo unspecified)
    2.4%, ., -0.6, ., 2, .

Next compounds.
SMILES | PINK1 expr mod | Six1-Eya2 blk | TRPML1 agonist | CtBP-E1A blk | TRPML1 inh | D2 agonist
COc1ccc(S(=O)(=O)N(C)C)cc1NC(=O)CN1C(=O)NC2(CCCC2)C1=O | 0.0% | -4 | 0.2 | 4 | 7 | -2.2
CCc1ccc(OCc2n[nH]c(=S)n2Cc2ccccc2)cc1 | 2.6% | -1 | 1.2 | -8 | 29 | -3.4
CC(=O)Nc1cc(S(=O)(=O)Nc2cccc(C)c2)c(C)cc1C | 0.5% | -1 | 5.5 | 6 | 2 | -2.9
Cc1cccc(C(=O)NCC(c2ccco2)N2CCc3ccccc32)c1 (stereo unspecified) | 5.2% | -23 | 0.8 | -14 | -6 | 2.6
CC1CCN(CCCNC(=O)c2n[nH]c(=O)c3ccccc23)CC1 | -1.1% | 1 | 0.7 | 0 | -5 | -1.4
Cc1ccc(S(=O)(=O)/N=C(/Nc2ccc3[nH]c(=O)[nH]c3c2)c2ccccc2)cc1 | -0.1% | -25 | -0.4 | -24 | -15 | -6.8
CCNc1nc(Cl)nc(N(NC(C)=O)C(C)C)n1 | 1.5% | 5 | -0.9 | 7 | -3 | 0.1
CCSc1ncnc2sc3c(c12)CCC3 | -0.9%[38.3 µM] | 13 | 0.5 | 15 | -11 | -2.1
CCCCCC(=O)Nc1c(-c2ccc(OC)cc2)c(=O)c2ccccc2n1C | -1.8%[38.3 µM] | 10 | 1.5 | 6 | -28 | -3.9
COCCNC(=O)C1CCC(CNS(=O)(=O)c2cccc3nsnc23)CC1 (stereo unspecified) | -2.0% | 6 | -0.1 | 2 | 5 | -2.2
Cc1c(NC(=O)COC(=O)CSc2ccc([N+](=O)[O-])cc2)c(=O)n(-c2ccccc2)n1C | 0.9% | 3 | 0.8 | -2 | 4 | -1.7
Cn1c(=O)n(C)c2cc([N+](=O)[O-])c(N3CCN(C(=O)c4cccc(F)c4)CC3)cc21 | 0.8% | -8 | -0.8 | -13 | 5 | -7.9
COc1ccccc1CCn1cnc(-c2ccc(Br)cc2)c1C(C)C | ? | -28 | -0.1 | 2 | . | .
CC(=O)c1ccc(-n2ccc(=O)cc2)cc1 | 1.8% | 1 | 0.9 | . | -14 | -1.7
COc1cc(CNCCN2CCOCC2)ccc1OCc1ccc(Cl)cc1 | 0.1% | -6 | -0.1 | 2 | 13 | -1.9
O=C(O)Cn1nnc(-c2cccs2)n1 | -0.6% | 7 | 1.5 | -19 | -21 | -2.6
O=C1C2CC=CCC2C(=O)N1c1n[nH]c(-c2ccccc2)n1 (stereo unspecified) | 0.9% | 3 | 1.3 | 3 | -2 | 1.1
CCOC(=O)NC1(NCc2ccccc2)Oc2ccccc2O1 | -1.2%[38.3 µM] | 9 | -0.7 | 2 | 11 | 4.4
Cc1ccc(Cn2c(C)cc3c(c2=O)C(c2cccs2)C(C#N)=C(N)O3)cc1 (stereo unspecified) | 12%[38.3 µM] | 2 | -0.7 | 4 | -3 | 0.5
Cc1cccc(C)c1NC(=O)Cn1nnnc1N | 1.9% | 5 | -0.8 | 3 | 8 | -2.1
CCCCCCCNC(=O)C1(CC2CC(c3cccc(Br)c3)=NO2)CCN(C(=O)c2cc(OCC)c(OCC)c(OCC)c2)CC1 (stereo unspecified) | -0.6% | 0 | 0.2 | 5 | -7 | -0.7
Cn1c(=O)c2c(nc(NCCCN3CCOCC3)n2Cc2cccc(Cl)c2)n(C)c1=O | 2.7% | -2 | 0.6 | -1 | 5 | -0.4
CCOC(=O)[C@]12CCC=C1N(Cc1ccccc1)C(=O)[C@H](CC(=O)N1CCSCC1)C2 | -0.9% | 1 | -0.9 | 1 | . | .
Cc1cccc(C)c1NC(=O)CNC(=O)Cc1c[nH]c2ccccc12 | -0.4% | -2 | 1.0 | -1 | -12 | -2.7
CCn1nnc2sc3c(c2c1=O)CCC(C)C3 (stereo unspecified) | -2.4% | 10 | 3.1 | 8 | -6 | -1.5
C/C(=N\NC(=O)C1CC1)c1ccc(Cl)cc1 | -1.7% | 0 | 3.6 | -8 | 23 | -0.3
O=C(COc1ccccc1[N+](=O)[O-])Nc1cc(Cl)ccc1C(=O)O | 0.5% | -9 | 2.0 | . | 5 | -2.8
COc1ccc(N2CCN(C(=O)COC(=O)CNC(=O)c3ccc(C)cc3)CC2)cc1 | -3.7% | -5 | -0.7 | 20 | -3 | -1.0
Cc1ccc(CSc2nc(-c3ccccc3)c(C#N)c(=O)[nH]2)cc1 | 0.3% | 1 | . | -1 | . | 0.4
CSc1nc(N)nc(SCC(=O)Nc2cccc(F)c2)c1C#N | 14% | 9 | 2.6 | 3 | 28 | 1.6
CCOc1ccc(C(=O)NC2CCN(C(=S)NCc3ccco3)CC2)cc1 | 4.8%[38.3 µM] | 7 | -0.1 | 46 | 5 | 2.4
CCOC(=O)c1ccc(NC(=O)c2oc(=O)c3ccccc3c2-c2ccccc2)cc1 | -1.9% | . | 0.2 | . | 2 | .
COc1ccc(NC(=O)C(NC(=O)/C=C\c2ccc3c(c2)OCO3)c2ccc(C)cc2)cc1 (stereo unspecified) | 2.5% | . | 0.1 | . | 26 | .
COc1ccc(Br)cc1CN(C)CC(=O)Nc1c(Cl)cccc1Cl | ? | 2 | 1.5 | -13 | -3 | -4.9
O=C(c1ccc(Cn2cc(Br)cn2)cc1)N1CCN(c2ccccc2)CC1 | ? | -10 | 1.3 | -3 | -4 | 0.6
COc1ccc(C(=O)Nc2cc3cc(Cl)ccc3oc2=O)cc1OC | -0.5% | . | 0.9 | . | -3 | .
COc1cccc(CNC(=O)Cc2ccc(OC)c(S(=O)(=O)N3CCOCC3)c2)c1 | 2.3% | 5 | -0.2 | -18 | 12 | -1.3
COc1ccc(/C(CC2(O)C(=O)Nc3ccccc32)=N\O)cc1 (stereo unspecified) | -3.6% | 5 | 4.4 | 7 | 18 | -0.8
c1ccc(CSCCc2ccncc2)cc1 | 0.7% | 1 | 0.9 | -3 | -16 | 1.5
CCOC(=O)N1CCN(C(=O)c2cc(C)no2)CC1 | 0.7% | 9 | -0.4 | -22 | -4 | -3.1
CCN(Cc1ccccc1)c1ccc(/C=N/NS(=O)(=O)c2ccc(C)c([N+](=O)[O-])c2)cc1 | 4.2% | -28 | 5.6 | -6 | -9 | -1.2

4 compounds from above with just TRPML1 inh and D2 agonist.
| SMILES | TRPML1 inh | D2 agonist |
| --- | --- | --- |
| COc1cccc(CNC(=O)Cc2ccc(OC)c(S(=O)(=O)N3CCOCC3)c2)c1 | 12 | -1.3 |
| COc1ccc(/C(CC2(O)C(=O)Nc3ccccc32)=N\O)cc1 (stereo unspecified) | 18 | -0.8 |
| c1ccc(CSCCc2ccncc2)cc1 | -16 | 1.5 |
| CCOC(=O)N1CCN(C(=O)c2cc(C)no2)CC1 | -4 | -3.1 |
